# GLA inh pH 4.5: qHTS Assay for Inhibitors of Human alpha-Galactosidase at pH 4.5. Alpha-galactosidase A (Homo sapiens), P06280. purified enzyme, 4-MU-alpha-Gal fluorescence, pH 4.5. activity change, negative = inhibition, % at 105 µM. 230,000 tested, under 10 active; inconclusive = small, poorly fitted or top-dose-only inhibition, or a rising curve; inactive = flat fitted curve, though single readings scatter; no compound was filed as active;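 note: 0% = full activity with enzyme and -100% = basal without enzyme; dose as in the result columns while the protocol names 77 µM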
# Rango dissoc inh: qHTS Assay for Inhibitors of RanGTP induced Rango (Ran-regulated importin-beta cargo) - Importin beta complex dissociation; Snurportin-1 (Homo sapiens) + GTP-binding nuclear protein Ran (Homo sapiens) + Importin …; Biochemical FRET Rango-importin beta, RanGTP-induced dissociation; Potency, µM (series often up to 46.1 µM), inactives show at the top dose activity change, negative = inhibition; 340,000 compounds, 0.071% hits; active means falling FRET ratio curve, often poorly fitted, with flat reads before Ran was added; inconclusive means other falling curves, or compound fluorescence or quenching; inactive means flat or rising ratio curve;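 note: potency is the fitted concentration of half-maximal effect; % of control where 0% means no effect; nearly all actives have a fitted effect of over 45% in size; -100% = wells without RanGTP and RCC1; the record marks most hits as doubtful in a second field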
#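 Compounds preincubate 5 min with complex of recombinant Rango and importin beta in PBS with 1 mM DTT. Ran (0.6 uM) loaded with 2 mM GTP plus 0.2 uM RCC1 starts dissociation; FRET is recorded 45 min later.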
# Rango complex inh: qHTS Assay for Inhibitors of Rango (Ran-regulated importin-beta cargo) - Importin beta complex formation | Importin subunit beta-1 (Homo sapiens), Q14974 | Rango CFP/YFP FRET sensor + importin beta, 45 min | Potency, µM (titrated, usually from 92.2 µM), without a hit: top-dose inhibition of complex formation | 340,000 compounds, 0.031% hits | AID 540263, 2011; active = rising FRET ratio curve, often small or poorly fitted; inconclusive = mostly compound fluorescence or quenching in the first reads; inactive = flat curves in all reads;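 note: potency is the fitted concentration of half-maximal effect; 0% = DMSO wells and 100% = buffer wells lacking importin beta; nearly all actives have a fitted effect of over 15% in size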
# Target sequence (Q14974 whole entry, looked up): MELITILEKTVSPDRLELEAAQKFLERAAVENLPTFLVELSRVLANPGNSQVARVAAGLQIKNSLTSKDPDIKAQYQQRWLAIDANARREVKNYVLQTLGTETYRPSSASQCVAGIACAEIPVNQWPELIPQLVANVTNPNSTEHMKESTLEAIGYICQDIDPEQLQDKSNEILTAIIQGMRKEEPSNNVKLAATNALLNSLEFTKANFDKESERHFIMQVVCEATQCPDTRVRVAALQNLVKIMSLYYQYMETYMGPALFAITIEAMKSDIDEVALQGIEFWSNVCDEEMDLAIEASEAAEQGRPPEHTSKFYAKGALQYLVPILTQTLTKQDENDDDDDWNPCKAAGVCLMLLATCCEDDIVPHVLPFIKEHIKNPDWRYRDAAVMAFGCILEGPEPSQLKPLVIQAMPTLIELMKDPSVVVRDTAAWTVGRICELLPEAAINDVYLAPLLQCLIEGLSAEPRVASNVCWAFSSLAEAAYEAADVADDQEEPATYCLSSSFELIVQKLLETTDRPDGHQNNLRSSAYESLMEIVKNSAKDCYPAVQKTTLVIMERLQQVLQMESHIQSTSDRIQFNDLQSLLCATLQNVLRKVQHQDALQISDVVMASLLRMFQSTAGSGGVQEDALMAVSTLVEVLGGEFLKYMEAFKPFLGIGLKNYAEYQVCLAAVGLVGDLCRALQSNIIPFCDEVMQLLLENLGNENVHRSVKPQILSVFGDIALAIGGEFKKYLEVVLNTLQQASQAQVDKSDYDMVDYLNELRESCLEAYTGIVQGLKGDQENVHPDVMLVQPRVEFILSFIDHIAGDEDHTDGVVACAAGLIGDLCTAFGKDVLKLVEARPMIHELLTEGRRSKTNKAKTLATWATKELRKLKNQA
#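 FRET biosensor (snurportin 1 IBB flanked by EYFP and cerulean), 50 nM, with compound 5 min, then 0.125 microM importin beta in PBS, 1 mM DTT, 0.02% Tween-20, 0.1% BSA. CFP/YFP ratio read after 45 min at room temperature; pre-read flags interference.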
# miR-21 reporter: qHTS Assay for Modulators of miRNAs and/orActivators of miR-21; Potency, µM (top dose mostly 38.3 µM), inactives show at the top dose reporter change, positive = more light; HeLa miR-21 FLuc reporter, luciferase, 48 h; 340,000 tested, under 10 active; active = well fitted rising curve with a large enough effect; inconclusive = small, poorly fitted or top-dose-only effect; inactive = no such curve, though single readings can be large or run the other way;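 note: % of control where 0% means no effect; miR-21 action dims this reporter so a rising signal means less miR-21 action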
#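 Compounds were titrated across several concentrations (up to approximately 40 uM) and incubated 48 hours with HeLa miR-21-FLuc reporter cells (miR-21 target sequence downstream of FLuc, endogenous miR-21). Readout was firefly luciferase luminescence after lytic detection reagent.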
# The depositor's hits bear a star; u = inconclusive; x = not tested or not shown; & = joins results of further samples.
SMILES,GLA inh pH 4.5,Rango dissoc inh,Rango complex inh,miR-21 reporter
O=C(NCCc1csc(-c2cccnc2)n1)c1cccc(Cl)c1,0.3,19.0%,1.9%,6.5%&10.7%
COc1ccc(S(=O)(=O)N2CCC(C(=O)N[C@@H](C)C(=O)NC3CC3)CC2)cc1,x,9.5%,0.3%,-2.2%
Cn1ncc2c(N)nc(NCCO)nc21,x,7.3%,0.6%,x
CN=C(Nc1cccc(OC)c1)SC1CC(=O)N(c2ccc(C(=O)O)cc2)C1=O (configuration not stated),0.4,1.0%,0.4%,-11.6%
COc1cccc(OCc2cc(C(=O)NCCN3CCCCC3CO)no2)c1 (configuration not stated),x,2.0%,-3.3%,-4.0%
Cc1ccc(-n2ncc3c(=O)n(Cc4cccnc4)cnc32)cc1,6.4,3.3%,-0.7%,-6.5%
Cc1ccccc1N=Nc1c(N)n[nH]c1N,x,-9.8%,13.7%,-18.1%
O=S(=O)(c1cc(Br)c(Cl)s1)N1CCCC1,1.3,16.6%,0.2%,-4.1%
O=C(CNC(=O)c1ccccc1F)Nc1ccncc1,x,-16.4%,3.7%,x
COc1ccc(N2C(=O)C3CCCN3C2c2cccc(OC)c2OC)cc1 (configuration not stated),0.0,-8.1%,-0.9%,-12.5%
CC(=O)Nc1ccc(N(C(=O)CNC(=O)c2cccs2)C(C(=O)NC(C)(C)C)c2ccccc2)cc1 (configuration not stated),-21.0,13.0%,5.0%,-1.3%
Cc1[nH]n(-c2ccccc2)c(=O)c1N=Nc1ccccc1C(=O)N1CCOCC1,-3.2,1.3%,-1.4%,-2.2%
COCC(=O)Nc1ccc(N2CCOCC2)c(S(=O)(=O)Nc2ccccc2OC)c1,x,6.9%,u,x
Cc1ccc(-c2nnc(-c3cccs3)o2)cc1,5.7,-8.8%,-1.7%,-48.2%
O=C(c1cc([N+](=O)[O-])ccc1Cl)N1CCN(c2ccccn2)CC1,7.1,-9.1%,0.4%,0.4%
O=C(CS(=O)(=O)c1cn(Cc2ccc(Cl)cc2)c2ccccc12)N1CCCCC1,9.1,-5.1%,3.2%,-7.5%
C[C@H](CO)N1C[C@H](C)[C@@H](CN(C)C(=O)Nc2ccc3c(c2)OCO3)Oc2c(NC(=O)c3ccncc3)cccc2C1=O,x,-14.9%,4.4%,x
CSc1ccc(Cl)c(C(=O)Nc2cc(S(=O)(=O)N3CCOCC3)ccc2N2CCOCC2)c1,x,0.7%,1.6%,x
CC1(C)O[C@@H]2[C@H](O1)[C@@H](CO)O[C@H]2n1cnc2c(N)ncnc21,x,0.1%,-1.3%,x
O=C(NN=C1CCCC1)c1n[nH]c2c1CCCC2,1.3,1.1%,6.2%,-12.0%
Cc1ccc(NC(=O)C(c2ccccc2)N2CCN(CC(=O)N3CCOCC3)CC2)cc1Cl (configuration not stated),x,0.8%,0.1%,x
COc1ccc(N(CC(=O)Nc2cccc(N(C)S(C)(=O)=O)c2)S(C)(=O)=O)cc1OC,6.4,8.2%,0.2%,-5.2%
COC(=O)c1ccc(C(=O)OC)nc1,12.5,10.0%,-1.7%,0.8%
Cc1ccc(NC(=O)CCc2ccc(S(=O)(=O)NC3CCCCC3)cc2)cc1,-4.6,-9.1%,-1.9%,0.4%
Cc1cc(C)cc(C(=O)NCC(=O)OCC(=O)N(C)C2CCS(=O)(=O)C2)c1 (configuration not stated),1.9,1.0%,0.0%,-1.1%
O=C(N/N=C/c1cn(Cc2ccccc2)c2ccccc12)c1cc(O)cc(O)c1,x,-4.2%,-0.5%,-24.5%
CCOC(=O)N1CCN(C(=O)C(C)c2ccc([N+](=O)[O-])cc2)CC1 (configuration not stated),x,-24.1%,-0.1%,-2.4%
COc1cccc(NC(=O)CSc2nnc3cc(C)nc(N)n23)c1,-2.9,-4.0%,-1.0%,-1.0%
C#CCOCCOCCOCCNc1nc(N2CCN(C(=O)[C@H](CCC(=O)O)n3cc([C@@H](N)CCCCN)nn3)CC2)nc(N2CCN(C(=O)[C@H](CCCCN)n3cc([C@@H](N)CC(N)=O)nn3)CC2)n1,x,0.6%,-10.1%,x
CC(C)Oc1ccc(Cc2n[nH]c(=S)n2Cc2ccccc2)cc1Cl,-14.3,4.1%,u,-9.1%
CC(NC(=O)CCC(=O)N1CCN(S(=O)(=O)c2ccc(Cl)cc2)CC1)c1ccccc1 (configuration not stated),-5.6,-7.2%,-1.0%,9.7%
C=CCNC(=S)NC(=O)c1ccc(C)c(Br)c1,2.3,9.0%,-4.3%,-35.6%
CCc1ccccc1N(C1=NCCCS1)S(=O)(=O)c1ccc(C(C)(C)C)cc1,5.7,13.0%,u,8.7%
O=C(C1CCC(=O)N(C2CC2)C1)N1CCC(Oc2ccccc2F)CC1 (configuration not stated),x,-4.9%,1.1%,-1.0%
O=C(Cn1cnc2ccccc21)OCC(=O)N1CCCc2ccccc21,-2.8,2.3%,-0.2%,-1.2%
CCc1ccc(NC(=O)NCc2ccc3c(c2)OCO3)cc1,x,6.0%,3.6%,-23.3%
O=C(NNS(=O)(=O)c1ccc(Cl)cc1Cl)c1cc2ncc(C(F)(F)F)cc2s1,0.8,-1.4%,0.6%,-4.0%
COc1cccc(Nc2ncccc2C(=O)NCc2ccccc2)c1,-6.4,u,u,-21.0%
Oc1cccc(Nc2nc(-c3ccccc3)nc3ccccc23)c1,x,-4.7%,-0.8%,17.4%&20.7%
COC(=O)c1ccccc1NC(=O)COc1ccc(S(=O)(=O)N2CCCC2)cc1C,-3.9,-7.0%,-3.1%,-1.6%
Cn1nc(SCC(=O)O)sc1=S,-4.3,-2.7%,4.9%,-1.7%
Cc1ccc(Oc2nc3ccccn3c(=O)c2/C=C(\C#N)C(=O)NC2CCS(=O)(=O)C2)c(C)c1 (configuration not stated),x,u,u,1.8%
CCOc1ccccc1OCCOCCOc1ccccc1[N+](=O)[O-],-7.6,-7.8%,-1.0%,-13.4%
CCn1c(CN2CCN(C(c3ccccc3)c3ccccc3)CC2)nc2c1c(=O)n(C)c(=O)n2C,x,-13.6%,u,2.7%
COc1cc(CNC2CCCC2)cc(Cl)c1OCc1ccccc1F,-16.4,-4.6%,4.4%,14.6%
COc1ccc(C(=O)NCC(=O)OCC(=O)Nc2cccc(S(=O)(=O)N3CCCC3)c2)cc1,-4.5,37.8%,0.2%,1.0%
CCC(=O)N1CCc2cc(S(=O)(=O)NCCC(=O)NCc3ccccc3OC)ccc21,x,13.4%,0.0%,-3.7%
C=CCN(CC=C)C(=O)CN1C(=O)NC(Cc2c[nH]c3ccccc23)C1=O (configuration not stated),x,-5.1%,-5.6%,0.0%
CCOc1ccc(NC(=O)CN2C(=O)COc3ccc(S(=O)(=O)N4CCCC4)cc32)cc1,x,-11.1%,3.0%,-3.5%
COc1ccc(CN(CC(O)COc2cccc3[nH]cc(C)c23)C(C)(C)C)cc1 (configuration not stated),x,9.9%,0.0%,-2.8%
CCN(CC)CCn1c(NCc2ccc3c(c2)OCO3)nc2ccccc21,-8.9,-19.6%,-0.1%,-14.2%
CCCCn1c(=N)n(CC(=O)C(C)(C)C)c2ccccc21,-3.1,0.5%,-2.7%,4.0%
Clc1ccc(-c2noc3c2-c2nc(Cc4cccc5ccccc45)sc2CC3)cc1,x,5.2%,0.3%,x
CN1CCN(C(=O)c2cc(S(=O)(=O)Nc3ccccc3F)c(Cl)cc2Cl)CC1,3.8,-14.0%,3.2%,1.9%
COc1ccc(/C=C/C(=O)Nc2ccccc2C(F)(F)F)cc1,1.6,0.5%,-0.4%,-42.4%
Cn1c(SCC(=O)NCC2CCCO2)ncc(C(=O)Nc2ccc(F)cc2)c1=O (configuration not stated),x,9.9%,0.5%,x
O=C(c1cc(COc2ccc(F)cc2Cl)on1)N(CCO)Cc1cccs1,x,-3.0%,-0.6%,-32.8%
Cc1ccc2cc(C#N)c(SCC(=O)N3CCCc4ccccc43)nc2c1,-21.6,-3.7%,1.4%,-7.6%
Cc1cc2c(Nc3ccc(O)cc3)ncnc2s1,x,-7.5%,1.9%,-50.6%
CC(C)C(C)NC(=O)COc1ncnc2sccc12 (configuration not stated),-18.2,7.8%,2.9%,-1.6%

# Carrying on:
SMILES,GLA inh pH 4.5,Rango dissoc inh,Rango complex inh,miR-21 reporter
N#Cc1ccc(CSc2nnc(-c3ccccn3)n2-c2ccc(Cl)cc2)cc1,3.8,-8.5%,-1.0%,-1.4%
CN(CC(=O)NC(=O)NC(C)(C)C)CC(=O)Nc1ccccc1Cl,-2.9,7.8%,-3.5%,-7.1%
O=C(CCc1ccccc1)NNC(=O)c1ccccc1C(=O)O,-0.9,0.7%,-0.4%,-3.4%
N/C(Cc1ccccc1Sc1ccccc1)=N\O,-7.4,0.6%,0.9%,-2.5%
CCCCOc1ccc(-c2nnn(CCC(=O)N3CCOCC3)n2)cc1,6.8,1.0%,-2.5%,-29.0%
CCC(=O)c1cn(CC(=O)NCC2CCCO2)c2ccccc12 (configuration not stated),-0.2,5.8%,-0.2%,-0.7%
CC(=O)Nc1ccc(S(=O)(=O)NCC(=O)NCCCc2ccccc2)cc1,x,8.6%,3.0%,-1.5%
CCOc1ccccc1NC(=O)C1CCN(S(=O)(=O)c2c(C)nn(C)c2C)CC1,-2.8,u,4.3%,-6.5%
COc1ccc2nc(SCCC(=O)O)cc(C)c2c1,4.8,1.1%,-2.3%,-10.1%
CCOc1ccccc1NC(=O)CCS(=O)(=O)c1ccc2c(c1)CC(C)N2C(C)=O (configuration not stated),x,-17.1%,0.9%,2.2%
Cc1nc(SCCOc2ccc(F)cc2)c2ccccc2n1,0.7,u,-2.3%,-36.8%
Cc1nc2c(C)cccc2c2c1COC2,-29.6,0.7%,4.2%,0.5%

# By substructure: the entries above containing an aryl methoxy group (14)
SMILES,GLA inh pH 4.5,Rango dissoc inh,Rango complex inh,miR-21 reporter
COc1ccc(S(=O)(=O)N2CCC(C(=O)N[C@@H](C)C(=O)NC3CC3)CC2)cc1,x,9.5%,0.3%,-2.2%
CN=C(Nc1cccc(OC)c1)SC1CC(=O)N(c2ccc(C(=O)O)cc2)C1=O (configuration not stated),0.4,1.0%,0.4%,-11.6%
COc1cccc(OCc2cc(C(=O)NCCN3CCCCC3CO)no2)c1 (configuration not stated),x,2.0%,-3.3%,-4.0%
COc1ccc(N2C(=O)C3CCCN3C2c2cccc(OC)c2OC)cc1 (configuration not stated),0.0,-8.1%,-0.9%,-12.5%
COCC(=O)Nc1ccc(N2CCOCC2)c(S(=O)(=O)Nc2ccccc2OC)c1,x,6.9%,u,x
COc1ccc(N(CC(=O)Nc2cccc(N(C)S(C)(=O)=O)c2)S(C)(=O)=O)cc1OC,6.4,8.2%,0.2%,-5.2%
COc1cccc(NC(=O)CSc2nnc3cc(C)nc(N)n23)c1,-2.9,-4.0%,-1.0%,-1.0%
COc1cccc(Nc2ncccc2C(=O)NCc2ccccc2)c1,-6.4,u,u,-21.0%
COc1cc(CNC2CCCC2)cc(Cl)c1OCc1ccccc1F,-16.4,-4.6%,4.4%,14.6%
COc1ccc(C(=O)NCC(=O)OCC(=O)Nc2cccc(S(=O)(=O)N3CCCC3)c2)cc1,-4.5,37.8%,0.2%,1.0%
CCC(=O)N1CCc2cc(S(=O)(=O)NCCC(=O)NCc3ccccc3OC)ccc21,x,13.4%,0.0%,-3.7%
COc1ccc(CN(CC(O)COc2cccc3[nH]cc(C)c23)C(C)(C)C)cc1 (configuration not stated),x,9.9%,0.0%,-2.8%
COc1ccc(/C=C/C(=O)Nc2ccccc2C(F)(F)F)cc1,1.6,0.5%,-0.4%,-42.4%
COc1ccc2nc(SCCC(=O)O)cc(C)c2c1,4.8,1.1%,-2.3%,-10.1%

# Screens deposited in PubChem by National Center for Advancing Translational Sciences (NCATS).

# Only part of the results is shown (hit frequency here may not be typical).
